StopGo reporter: lowers the luciferase signal of an FMDV 2A StopGo reporter. Potency, µM (titrated, usually from 57.9 µM), for inactives: top-dose signal change, negative = less light. human cells with a luciferase reporter of 2A StopGo recoding; control for the full effect not named in the record. 410,000 tested, 1.2% active; active = well fitted falling curve with a large enough effect; inconclusive = small, poorly fitted or top-dose-only effect; inactive = no such curve, though single readings can be large or run the other way; tested in HEK293T cells; note: % is set by controls: 0 for no effect and ±100 for the full control effect; nearly all actives have a fitted effect of over 45% in size; luciferase light after 4 h
SARS PLpro yeast: inhibitors of SARS-CoV papain-like protease in yeast; S. cerevisiae expressing SARS-CoV PLpro, growth rescue; control for the full effect not named in the record; Potency, µM (top dose mostly 32.9 µM), for the others: at the top dose activity, positive = growth rescue; 330,000 tested, 0.19% active; active means well fitted rising curve with a large enough effect; inconclusive means small, poorly fitted or top-dose-only effect; inactive means no such curve, though single readings can be large or run the other way; note: 0% is about no effect; nearly all actives have a fitted effect of over 55% in size; growth read by luminescence after 48 h
RE007 growth inh: less growth of the S. pombe RE007 Vpr strain | S. pombe RE007 Vpr strain, BacTiter-Glo ATP luminescence, 24 h; control for the full effect not named in the record | Potency, µM (series often up to 92.2 µM), inactives show at the highest dose activity change, negative = less growth | 360,000 tested, 0.21% active | AID 651644; active = well fitted falling curve with a large enough effect; inconclusive = small, poorly fitted or top-dose-only effect; inactive = no such curve, though single readings can be large or run the other way;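 note: % is set by controls: 0 for no effect and ±100 for the full control effect; nearly all actives have a fitted effect of over 50% in size; the assay follows cell death caused by Vpr and the record does not say whether a fall means rescue or toxicity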
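Fission yeast strain RE007, carrying one chromosomally integrated HIV-1 vpr copy, was seeded at OD 0.01 in PMG+AL medium with 23 nL pinned compound. After 24 h at 30 °C and 99% humidity, viability was read by BacTiter-Glo luminescence.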
NS1 function inh: inhibitors of influenza NS1 protein function; 270,000 tested, 0.4% active; Potency, µM (series often up to 46.1 µM), for inactives: at the top dose activity, positive = more growth; S. cerevisiae slowed by influenza A NS1, growth recovery by OD600; AID 2326; active means well fitted rising curve with a large enough effect; inconclusive means small, poorly fitted or top-dose-only effect; inactive means no such curve, though single readings can be large or run the other way; note: nearly all actives have a fitted effect of over 50% in size
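Growth recovery, yeast-based: influenza A NS1 expressed in S. cerevisiae causes slow growth, and suppressors are detected by OD600. The parent strain without NS1 is used as positive control.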
Cruzain inh Det: cruzain (T. cruzi) inhibition with detergent; purified cruzain, Z-FR-AMC fluorescence, 0.01% Triton; 200,000 tested, 0.43% active; Potency, µM, inactives show max response, negative = inhibition, hits mostly inhibitors;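 note: plate controls were neutral wells for no effect and buffer without enzyme for full effect; nearly all actives have a fitted effect of over 40% in size; top concentration of the series not given in the record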
Target sequence (P25779 123-467 limits assumed): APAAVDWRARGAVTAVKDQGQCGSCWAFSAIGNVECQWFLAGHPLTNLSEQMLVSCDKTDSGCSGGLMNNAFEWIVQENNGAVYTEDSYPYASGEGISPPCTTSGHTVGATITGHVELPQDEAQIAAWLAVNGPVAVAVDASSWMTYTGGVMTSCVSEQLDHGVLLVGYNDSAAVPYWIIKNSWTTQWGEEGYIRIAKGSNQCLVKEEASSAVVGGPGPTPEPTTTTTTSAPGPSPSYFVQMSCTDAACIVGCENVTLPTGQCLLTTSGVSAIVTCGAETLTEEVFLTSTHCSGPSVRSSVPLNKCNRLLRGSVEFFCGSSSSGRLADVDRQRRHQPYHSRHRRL
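Cruzain (1.5 nM) preincubated 15 min at RT with compound in 100 mM sodium acetate pH 5.5, 5 mM DTT, 0.01% Triton X-100. Reaction started with 2 uM Z-FR-AMC; AMC fluorescence (ex 360/em 450 nm) change over 60 s gave rate.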
LASV entry inh: Lassa virus entry inhibition; Lassa virus pseudotype entry inhibition, cell reporter; control for the full effect not named in the record; Potency, µM (series often up to 37.9 µM), for the others: top-dose activity change, negative = inhibition, most hits filed as inhibitors; 300,000 tested, 1.2% active; AID 540256; active means well fitted inhibition curve with a large enough effect; inconclusive means small, poorly fitted or top-dose-only effect, or effect the other way; inactive means flat fitted curve, though single readings scatter; tested in HEK293 cells; note: % is set by controls: 0 for no effect and ±100 for the full control effect; nearly all actives have a fitted effect of over 50% in size; luciferase read-out
Marburg entry inh: Marburg virus entry inhibition; Potency, µM (doses to about 37.8 µM), without a hit: at the top dose activity change, negative = inhibition, most hits filed as inhibitors; Marburg virus pseudotyped entry inhibition, cell reporter; control for the full effect not named in the record; about a third of the inactives were read at about 46 µM; AID 540276; 300,000 tested, 1.8% active; active = well fitted inhibition curve with a large enough effect; inconclusive = small, poorly fitted or top-dose-only effect, or effect the other way; inactive = flat fitted curve, though single readings scatter; tested in HEK293 cells; about a fifth of its hits are not listed in these tables; note: % is set by controls: 0 for no effect and ±100 for the full control effect; luciferase read-out
Cruzain inh noDet: blocks cruzain activity in detergent-free assay. purified cruzain, Z-FR-AMC fluorescence, no detergent. Potency, µM, for the others: max response, negative = inhibition, actives largely listed as inhibitors. 200,000 tested, 2.3% active;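 note: plate controls were enzyme without inhibitor for no effect and buffer without enzyme for full effect; nearly all actives have a fitted effect of over 40% in size; top concentration of the series not given in the record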
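Detergent-free condition (0.00005% Triton X-100) in acetate buffer pH 5.5 with DTT. 1.5 nM enzyme and compound were pre-mixed 15 min, then 2 uM Z-FR-AMC substrate added; reaction progress from fluorescence change between first and third reads (60 s).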
* hit, by the source's call; u = inconclusive; x = no result given; [ ] = dose if it differs, or a comment. Unless noted, calls come from the whole dose curve; as a rule, active = well fitted curve in the direction sought with a large enough effect; inconclusive = small, poorly fitted or top-dose-only effect, or another doubt; inactive = no such curve, though single readings can be large; an effect the other way counts as inactive or inconclusive. Potency is the fitted concentration of half-maximal effect.

SMILES	StopGo reporter	SARS PLpro yeast	RE007 growth inh	NS1 function inh	Cruzain inh Det	LASV entry inh	Marburg entry inh	Cruzain inh noDet
Cc1ccc(S(=O)(=O)NC(C)CCc2ccccc2)cc1 (stereo not given)	10%	-12%	3%	-7%	-6.4%	-19%	-7%	-7%
O=C(Nc1ccccc1Oc1cccnc1)C1CCCN(Cc2ccccc2O)C1 (stereo not given)	9%	4%	-12%	16%	x	-6%[46.1 µM]	u	x
Cc1ccc(C)c(CN2CCC(CNC(=O)c3cc4ccc5cccnc5c4[nH]3)CC2)c1	-5%	x	x	x	-3.1%	-9%[46.1 µM]	x	-12%
CCN(CC)c1ccc(/C=N/NC(=O)c2nnn(-c3nonc3N)c2C(C)C)c(O)c1	0%	u	-25%	-53%	x	u	2.5µM*	x
Cc1ccc(OCCCn2c(-c3ccc(Cl)cc3)nc3ccccc3c2=O)cc1C	-1%	x	x	x	-0.7%	-11%[46.1 µM]	-3%[46.1 µM]	-7%
O=C(O)C1=C[C@@H](c2csc3ccccc23)C[C@@H](OCCCCO)O1	13%	0%	12%	2%	x	x	x	x
NC(=S)N=Nc1c(O)[nH]c2c(Br)cc(Br)cc12	-22%	-9%	7%	x	x	15%[46.1 µM]	25%[46.1 µM]	x
CCOC(=O)c1c(S(=O)(=O)N2CCC(C(=O)N3CCN(c4cc(C)ccc4C)CC3)CC2)c(C)n(C)c1C	0%	x	x	x	1.2%	-21%[46.1 µM]	x	14%
Cc1oncc1-c1cn2ccccc2n1	26%	-3%	11%	5%	5.1%	7%	29%	-5%
CC1(C)Cc2nc3oc4c(N5CCOCC5)ncnc4c3cc2CO1	-7%	0%	11%	-1%	-1.4%	-20%	8%	-11%

The closing 5 records of the section before lead into the next.
SMILES	StopGo reporter	SARS PLpro yeast	RE007 growth inh	NS1 function inh	Cruzain inh Det	LASV entry inh	Marburg entry inh	Cruzain inh noDet
O=C(O)C1=C[C@@H](c2csc3ccccc23)C[C@@H](OCCCCO)O1	13%	0%	12%	2%	x	x	x	x
NC(=S)N=Nc1c(O)[nH]c2c(Br)cc(Br)cc12	-22%	-9%	7%	x	x	15%[46.1 µM]	25%[46.1 µM]	x
CCOC(=O)c1c(S(=O)(=O)N2CCC(C(=O)N3CCN(c4cc(C)ccc4C)CC3)CC2)c(C)n(C)c1C	0%	x	x	x	1.2%	-21%[46.1 µM]	x	14%
Cc1oncc1-c1cn2ccccc2n1	26%	-3%	11%	5%	5.1%	7%	29%	-5%
CC1(C)Cc2nc3oc4c(N5CCOCC5)ncnc4c3cc2CO1	-7%	0%	11%	-1%	-1.4%	-20%	8%	-11%
CCC(C)NC(=O)C1CCN(S(=O)(=O)c2ccc3c(c2)CCCN3C(C)=O)CC1 (stereo not given)	-9%	x	x	x	1.1%	-11%[46.1 µM]	x	2%
COc1ccc(NC(=S)NC(=O)c2ccccc2)cn1	41%[activator]	-2%	-9%	-21%	x	x	x	x
Cc1ccc(S(=O)(=O)N2CCOCC2)cc1NC(=O)CSc1nc2ccccc2c(=O)n1Cc1ccccc1	-7%	u	9%	u	-2.8%	-7%	17%	u
CC(=O)NCCc1cc2ccc(C)c(C)c2[nH]c1=O	5%	5%	-6%	-11%	-7.3%	x	x	0%
O=C1N=C(N2CCCC2)S/C1=C\c1cn[nH]c1-c1ccccc1	x	17%	x	-11%	-4.4%	17%	-14%	8%
CCSC1=N/C(=C\c2ccc3c(c2)OCO3)C(=O)S1	17%	5%	2%	0%	-11%	5%	11%[46.1 µM]	-17%
COc1ccc(Cl)cc1C(=O)NNC(=O)c1[nH]c(C)c(C(C)=O)c1C	13%	14%	-3%	x	x	7%[46.1 µM]	15%	x
CCCCc1nnc(NC(=O)CCS(=O)(=O)Cc2ccccc2)s1	-12%	1%	-15%	6%	x	14%	-1%	x
CCc1ccccc1NC(=O)CSc1nc2c(c(=O)[nH]1)CN(Cc1ccccc1OC)CC2	-6%	x	x	x	-1.5%	11%[46.1 µM]	17%[46.1 µM]	7%
O=C(Nc1ccc(Oc2ccccc2)cc1)C1CCN(c2ncccn2)CC1	-15%	10%	11%	5%	4.8%	-12%	4%	-25%
CCOC(=O)CNc1ncnc2c1nnn2C	-8%	x	x	x	0.9%	7%[46.1 µM]	x	-1%
Nc1nc2ccccc2n1/N=C/c1ccc(-c2ccccc2)o1	-5%	6%	-23%	-101%	-29%	-16%	u	-18%
CCCC(C)C(=O)NCc1ccccc1OC (stereo not given)	2%	3%	33%	-2%	1.9%	-12%	-2%	-3%
CCOC(=O)CSc1nc(C)cc(Oc2ccc(=O)n(C)n2)n1	-11%	9%	-3%	2%	0.7%	4%	-13%	-2%
O=C(Nc1ccccc1C(=O)NCCN1CCOCC1)c1cccc([N+](=O)[O-])c1	-12%	4%	4%	-3%	x	u	13%	x
CN1CCN(c2ccccc2NC(=O)c2c(F)cccc2F)CC1	-6%	5%	11%	x	x	2%	0%	x
COc1ccc(C(C(=O)NC2CCCC2)N(Cc2cccnc2)C(=O)Cc2cccs2)cc1OC (stereo not given)	13%	-2%	30%	4%	x	22%[46.1 µM]	1%[46.1 µM]	x
O=S(=O)(Nc1ccccc1Br)c1cccs1	10%	-2%	-20%	-3%	x	3%[46.1 µM]	10%[46.1 µM]	x
Cc1ccc(CNC(=O)CN(C)S(=O)(=O)c2cnc[nH]2)cc1	5%	2%	-13%	11%	0.0%	-1%	-2%	-9%
CCc1nnc2n1N(C(C)=O)C(c1ccc(C(C)(C)C)cc1)=C(C(C)=O)S2	u	x	x	x	-10.0%	11µM*	x	u
COc1cc2[nH]c(=S)n(CCN3CCOCC3)c(=O)c2cc1OC	x	1%	9%	-9%	-1.7%	-11%	10%	-1%
COc1ccc(/C=C/C(=O)OCC(=O)NC2CCCC(C)C2C)cc1 (stereo not given)	-10%	2%	-12%	x	x	-11%	22%	x
Cc1ccccc1NC(=O)C1CCCN(C(=O)Nc2ccc(F)cc2)C1 (stereo not given)	27%	-3%	10%	-4%	x	-9%[46.1 µM]	5%[46.1 µM]	x
Cn1nnnc1Sc1ncnc2scc(-c3ccc(F)cc3)c12	16µM*	-1%	-17%	-17%	2.3%	4.1µM*	8.2µM*	-3%
O=C(CN1C(=O)NC(Cc2ccccc2)C1=O)Nc1ccc(F)cc1 (stereo not given)	-12%	3%	16%	-1%	4.0%	0%	-12%	1%
CCN(CC)CCN(Cc1cc2cc3c(cc2[nH]c1=O)OCCO3)C(=O)NC1CCCCC1	7%	-1%	-11%	-2%	-11%	3%	-20%	-14%
Cc1[nH]c2ccccc2c1C1=CCNCC1	-2%	2%	-2%	u	-2.4%	-6%	-4%	-4%
CC(C)(O)C#Cc1ccc(C(=O)NCCc2ccc(S(N)(=O)=O)cc2)cc1	-9%	1%	-9%	x	x	24%[46.1 µM]	-1%[46.1 µM]	x
Cc1ccc(NC(=O)CSc2nnc3nc(C)cc(C)n23)cc1	-6%	x	x	x	-0.8%	0%[46.1 µM]	-8%[46.1 µM]	5%
Cc1ccc(C)c(CSC2=NCCN2S(=O)(=O)c2ccccc2)c1	-26%	1%	17%	3%	x	-30%	u	x

Random excerpt: two records from the list, in no set order.
SMILES	StopGo reporter	SARS PLpro yeast	RE007 growth inh	NS1 function inh	Cruzain inh Det	LASV entry inh	Marburg entry inh	Cruzain inh noDet
O=C(CN1C(=O)NC(Cc2ccccc2)C1=O)Nc1ccc(F)cc1 (stereo not given)	-12%	3%	16%	-1%	4.0%	0%	-12%	1%
CC(C)(O)C#Cc1ccc(C(=O)NCCc2ccc(S(N)(=O)=O)cc2)cc1	-9%	1%	-9%	x	x	24%[46.1 µM]	-1%[46.1 µM]	x

(more compounds)
SMILES	StopGo reporter	SARS PLpro yeast	RE007 growth inh	NS1 function inh	Cruzain inh Det	LASV entry inh	Marburg entry inh	Cruzain inh noDet
O=C(NC12CC3CC(CC(C3)C1)C2)C1CC(=O)N(c2ccc(Br)cc2)C1 (stereo not given)	u	-4%	10%	-7%	1.9%	-22%	-18%	-3%
O=C(Cc1ccc(F)cc1)NCC1CCCO1 (stereo not given)	-7%	-1%	23%	5%	x	-1%[46.1 µM]	10%[46.1 µM]	x
O=C(c1ccc(Cl)c(Cl)c1)N1CCN(Cc2ccc3c(c2)OCO3)CC1	-26%	-4%	9%	-17%	x	x	x	x
O=C(CN1CCN(C2CCCCC2)CC1)c1c[nH]c2ccccc12	21%	-4%	3%	9%	3.1%	0%	1%[46.1 µM]	0%
O=C(CSc1ncc(-c2ccccc2)n1C1CCCC1)N1CCc2ccccc21	-9%	-5%	-7%	5%	0.0%	u	u	u
C[N+]12CCC(CC1)C(=C(c1ccccc1)c1ccccc1)C2	-17%	-3%	8%	1%	0.6%	u	1%	0%
Cc1[nH]c2ccccc2c1/C=N\NC(=O)CNc1ccc2c(c1)OCO2	29%	u	-11%	23%	-12%	7%	-2%	3%
COc1ccc(C2C(C(=O)NCc3ccccn3)c3cc(OC)c(OC)cc3C(=O)N2C)cc1 (stereo not given)	6%	-1%	12%	-4%	1.7%	-12%	15%[46.1 µM]	14%
Cc1cccc(NS(=O)(=O)c2ccc3c(c2)NC(=O)CC(=O)N3)c1	-7%	0%	6%	x	x	1%	10%	x
COC(=O)c1ccc(NC(=O)c2cnn(-c3ccc(Cl)cc3)c2C2CCN(C(=O)OC(C)(C)C)CC2)cc1	-17%	x	x	x	-4.4%	-13%[46.1 µM]	x	-21%
COc1ccc(NC(=O)CSc2nnc(C)n2C2CCCCC2)cc1	0%	-14%	3%	11%	x	4%	15%	x
COc1ccccc1-c1coc2c(CN3CCN(C)CC3)c(O)ccc2c1=O	1%	10%	-3%	4%	0.3%	20%	-3%	0%
CCOC(=O)C(=O)N(CC)C1CCS(=O)(=O)C1 (stereo not given)	10%	0%	12%	-2%	x	-2%	-18%[14.2 µM]	x
COC(=O)c1cn(NC(=O)c2ccc(OC)c([N+](=O)[O-])c2)c(=O)c2ccccc12	-24%	0%	2%	x	x	u	-29%	x
O=C(Nc1ccc(Cl)cc1)c1cc(S(=O)(=O)N2CCCc3ccccc32)ccc1F	-22%	x	x	x	1.0%	u	x	-13%
CC(C)(C)NC(=O)NC(=O)COC(=O)COc1ccc(Cl)cc1Cl	-18%	-2%	-6%	x	x	4%	14%	x

Not a hit list (roughly 4.7% active in at least one column).
